VDR inh – vitamin D3 receptor (human) inhibition. 0.93% of 400,000 active. AID 504847. Potency, µM, without a hit: max response, negative = inhibition, actives largely listed as inhibitors. VDR-SRC2-3 peptide fluorescence polarization, 2 h; active means well fitted inhibition curve with a large enough effect; inconclusive means small, poorly fitted or top-dose-only effect, or another doubt; inactive means no such curve, though single readings can be large or run the other way; further: series mostly up to about 120 µM
Target sequence (P11473 whole entry, looked up): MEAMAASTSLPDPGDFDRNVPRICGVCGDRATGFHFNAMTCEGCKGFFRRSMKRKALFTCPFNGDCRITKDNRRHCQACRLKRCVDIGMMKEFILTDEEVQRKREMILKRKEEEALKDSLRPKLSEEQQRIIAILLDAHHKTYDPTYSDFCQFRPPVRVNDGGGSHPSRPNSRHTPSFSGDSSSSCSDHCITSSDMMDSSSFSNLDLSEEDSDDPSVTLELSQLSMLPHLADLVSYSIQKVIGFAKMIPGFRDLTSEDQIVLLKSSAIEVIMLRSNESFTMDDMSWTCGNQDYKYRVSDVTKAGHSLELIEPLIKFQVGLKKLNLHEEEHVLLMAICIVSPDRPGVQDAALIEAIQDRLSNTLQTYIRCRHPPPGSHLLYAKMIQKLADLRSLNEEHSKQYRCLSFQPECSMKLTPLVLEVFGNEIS
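Measured by FP: displacement of SRC2-3 coactivator peptide from VDR by library compounds, following a two-hour ambient incubation.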
* = called active by the depositor; ? = inconclusive. On the % scale 0 is the no-effect control and ±100 the full control effect; potency means the concentration at half of the fitted maximal effect. The list is partial; count on the stated rates, not on these rows.

Molecule	VDR inh
CCOC(=O)Cc1[nH]nc2c1C(C1C=CCCC1)C(C#N)=C(N)O2 (configuration not stated)	-0.8%
CCOc1cccc(CC(=O)N2CCc3c([nH]c4ccccc34)C2c2ccc(Cl)cc2)c1OCC (configuration not stated)	6.9%
COc1cccc(NC(=O)C2CCCO2)c1 (configuration not stated)	-3.7%
O=C(CSc1nnc2ccc(-c3ccccc3)nn12)NCC1CCCO1 (configuration not stated)	3.2%
COC(=O)c1cc(C(=O)CC(C)C)c[nH]1	-10.4%
Cc1ccc(S(=O)(=O)NCCc2cc3ccc(C)c(C)c3[nH]c2=O)cc1	-21.3%
COc1ccc(C(=O)Nc2nc(C)c(C(=O)N(C)C)s2)cc1OC	-19.3%
O=C(COC(=O)c1ccc2c(=O)n3c(nc2c1)CCC3)NC1CCS(=O)(=O)C1 (configuration not stated)	10.7%
COc1ccc(CNC(=O)C[C@H]2C[C@H](C(=O)N3CCOCC3)[C@@]3(CCC4CCCC4)c4[nH]c5cc(-c6ccco6)ccc5c4CCN3C2=O)cc1OC	-22.1%
COc1ccc(CCNS(=O)(=O)CCNC(=O)c2ccc3c(c2)OCO3)cc1	12.3%
O=C(c1ccccc1)c1c[nH]cc1-c1ccccc1	7.8%
O=C(c1cn(-c2ccccc2)nc1-c1ccncc1)N1CCCCC1	18.6%
Cc1ccc(S(=O)(=O)c2nnn(CC(=O)Nc3ccccc3C)c2N)cc1C	-1.2%
Cc1oc(-c2cccc3ccccc23)nc1CN1CCN(c2ncnc3ccccc23)CC1	-6.0%
O=C(Nc1nccs1)c1ccc(S(=O)(=O)N2CCCCC2)cc1	7.5%
O=C(CN1C(=O)c2cccc3cccc1c23)Nc1ccccc1Br	2.5%
Cc1cccc(NC(=O)CSc2nnnn2C2CCCC2)c1	-6.6%
C/C(=N\NC(=O)c1ccc(O)cc1)c1ccc(NC(=O)Cc2ccccc2)cc1	-1.8%
CCOC(=O)C1=CN(Cc2ccco2)S(=O)(=O)N(C)C1c1ccc(F)c(Cl)c1 (configuration not stated)	?
CC(C)OCCCn1c(SC(C)C(=O)NC2CC2)nc2ccccc2c1=O (configuration not stated)	-15.0%

Carrying on:
Molecule	VDR inh
COC(=O)/C=C/c1oc2ccccc2c1C	5.2%
Cc1cnc(C(=O)Nc2ccc(N3CCN(C(=O)OC(C)(C)C)CC3)cc2)cn1	11.2%
O=C(C1CC1c1ccccc1)N1CCN(c2cccc(Cl)c2)CC1 (configuration not stated)	-2.1%
COc1ccc(C(=O)C2CCCN(C3Cc4ccccc4C3)C2)cc1OC (configuration not stated)	-13.7%
O=C(c1coc(=O)c2ccccc12)N1CCN(Cc2ccccc2)CC1	4.2%
O=c1c2c(-c3ccc(Cl)cc3)csc2ncn1/N=C/c1cccc([N+](=O)[O-])c1O	-9.6%
O=C(Nc1cc(S(=O)(=O)N2CCOCC2)ccc1N1CCCC1)c1ccccc1C(F)(F)F	-6.9%
Cc1cc(C(=O)CN2C(=O)C(=O)N(CCC3=CCCCC3)C2=O)c(C)n1C	-17.8%
CSC1=NCCN1C(=O)c1c(F)cccc1Cl	-14.6%
COC(=O)Nc1cc(C)n(-c2ccccc2)n1	-2.4%
N#C/C(=C\c1cn(CC(=O)N2CCCC2)c2ccccc12)C(=O)NCc1ccc2c(c1)OCO2	-4.0%
COc1cc(OC)c2ccc(=O)oc2c1C(CC(=O)N1CCCCC1)c1ccc2c(c1)OCO2 (configuration not stated)	-4.6%
O=C(O)c1ccc(NC(=S)NCc2ccccc2)cc1	10.2%
Cc1cccc(N2CCN(CC(=O)Nc3ccccc3[N+](=O)[O-])CC2)c1C	2.2%
CCN(CC(=O)NCc1ccc(F)cc1)C(=O)C1CC1C (configuration not stated)	-23.2%
Cc1ccc(-c2cc(-c3ccccc3[N+](=O)[O-])[nH]n2)c(O)c1	-9.4%
Cc1ccc2c(CNCc3ccc(C)o3)c(C(=O)O)n(Cc3ccc(F)cc3)c2c1	-3.2%
CCc1ccc(S(=O)(=O)NCc2nc3cccnc3n2Cc2ccccc2Cl)cc1	10.6%
CCOc1ccc(S(=O)(=O)NNS(=O)(=O)c2ccc(C)cc2C)cc1	-6.4%
CC(=O)N1CCN(S(=O)(=O)c2cccc(C(=O)OCC(=O)N(CCC#N)c3ccc(F)cc3)c2)CC1	7.3%

More records.
Molecule	VDR inh
CCCOc1ccc(C(=O)c2nc3c(n2O)CCCCC3)cc1	20.0%
O=C(CN1C(=O)COc2ccc(Cl)cc21)N1CCCCC1	-3.5%
CN=C1S/C(=C\c2ccc(N3CCOCC3)cc2C)C(=O)N1C	-1.8%
CCOC(=O)Cn1c(=N)n(CCOc2cccc(C)c2)c2ccccc21	4.7%
CC(Oc1ccc(-c2nnco2)cc1)C(=O)N1CCOCC1 (configuration not stated)	2.4%
Cc1ccc(N(CC(=O)NC(C)(C)C)C(=O)CNC(=O)c2cccs2)cc1	-0.5%
O=C(COC(=O)C1CC(O)CN1S(=O)(=O)c1ccc(Cl)cc1)c1ccccc1 (configuration not stated)	16.1%
Cc1ccc(NS(=O)(=O)c2ccc(NC(=O)C3CC3)cc2)cc1C	1.0%
O=C1CC(c2cccc(F)c2)C2=C(CCCC2=O)N1 (configuration not stated)	2.9%
C=CC(=O)Nc1cccc(Nc2nc(N[C@H]3CC[C@H](N(C)C)CC3)nc3c2ncn3C(C)C)c1	5.5%
C=C(C)c1cccc(C(C)(C)NC(=O)NNC(=O)c2ccccc2O)c1	15.8%
O=C(CSc1nnc(COc2cccc3cccnc23)o1)N1CCN(C(=O)c2ccco2)CC1	-3.8%
COc1ccc(C(=O)NCCC2=CCCCC2)cc1OC1CCN(C(C)C)CC1	1.9%
Cc1ccccc1OCC(=O)OCc1cc(=O)n2ccsc2n1	0.9%
COC(=O)c1c(NC(=O)c2ccco2)sc2c1CC(C)(C)NC2(C)C	-9.9%
COc1ccc(-c2nc(NC(=O)CSc3nnc(C)s3)ns2)cc1	10.1%
O=c1ccc(OCCOc2ccccc2)nn1-c1ccccc1	4.9%
COc1ccc(C)cc1S(=O)(=O)N(C)CC(=O)NCc1ccccn1	-2.2%
CC(C)(C)NC(=O)c1cc2c(ccc3ccccc32)oc1=O	-10.9%
CCn1cc(Br)c(C(=O)NC(=S)Nc2ccc(C(=O)OC)cc2)n1	-8.3%

3 compounds already listed, arranged by number of heavy atoms, low to high.
Molecule	VDR inh
CN=C1S/C(=C\c2ccc(N3CCOCC3)cc2C)C(=O)N1C	-1.8%
COc1ccc(-c2nc(NC(=O)CSc3nnc(C)s3)ns2)cc1	10.1%
C=CC(=O)Nc1cccc(Nc2nc(N[C@H]3CC[C@H](N(C)C)CC3)nc3c2ncn3C(C)C)c1	5.5%

(listing goes on)
smiles	VDR inh
COc1ccc(-c2c([C@H]3[C@H]4C=CC[C@@H](C)[C@@H]4C(=O)N3Cc3ccccc3)ccc3ccccc23)cc1OC	0.8%
C[C@@H]1CC=C[C@@H]2[C@H]1C(=O)N(Cc1ccccc1)[C@H]2c1cccc(Br)c1	-6.9%
Cc1ccc(Cl)cc1-n1c(=O)c2sc3ccccc3c2n(CC(=O)NC2CCCC2)c1=O	-3.1%
O=[N+]([O-])c1ccc(CSc2nnc(SCc3ccc(Cl)cc3)s2)cc1	-9.6%
CCOc1cc(/C=C2/C(=O)ON=C2C)cc(Br)c1O	56.2µM*
N#C/C(=C\c1ccccc1)c1n[nH]c(Cn2cncn2)n1	13.4%
Cc1cc(C)c(OCC(=O)OCC(=O)NNC(=O)c2ccccc2F)c(C)c1	-19.9%
CCOc1ccc(C(=O)Nc2cccc(-c3nc4cc(Cl)cc(Cl)c4o3)c2)cc1	-26.3%
COC(=O)c1c(NC(=O)COc2c(C)cccc2C)sc2c1CCCC2	-21.4%
Cc1ccc(CN2CC(C(=O)Nc3ncc(C)s3)CC2=O)cc1 (configuration not stated)	-2.9%
C/C(CS(=O)(=O)c1ccccc1)=N\O	6.0%
Cc1ccc(C(C(=O)NC(C)(C)C)N(Cc2ccc3c(c2)OCO3)C(=O)c2ccc(CN3CCOCC3)o2)o1 (configuration not stated)	8.7%
Cc1nnc(N2CCC(C(=O)NCCc3ccccc3)CC2)c2nn(-c3ccc(Cl)cc3)c(C)c12	15.4%
CCN(C[C@H]1N[C@@](CC)(C(=O)OC)[C@H]2C(=O)N(Cc3ccccc3)C(=O)[C@@H]12)S(=O)(=O)c1ccc(F)cc1	-2.5%
O=C(Nc1ccccn1)C1CCN(C(=O)c2ccc(F)cc2)CC1	-13.8%
COc1ccc(OC)c(NC(=O)CSC2=Nc3ccccc3C3=NC(CC(=O)NCc4ccc(F)cc4)C(=O)N23)c1 (configuration not stated)	6.8%
COc1ccc(S(=O)(=O)N(C)CC(=O)NCCN2CCOCC2)cc1	-5.6%
COc1ccc(C(=O)N2N=C(c3ccccc3)CC2(O)C(F)(F)F)cc1 (configuration not stated)	15.3%
CCOC(=O)CSc1nc2c(sc(=S)n2Cc2ccco2)c(=O)n1-c1ccccc1	6.6%
CCOC(=O)c1cccc(NC(=O)CCNS(=O)(=O)c2cc(Br)cnc2N)c1	5.1%

Other records:
smiles	VDR inh
COC(=O)c1ccccc1NC(=O)C1COc2ccccc2O1 (configuration not stated)	-3.2%
COc1ccc(CCNC(=O)c2cc3sccc3n2C)cc1OC	3.8%
C=CC[C@@H](CC(=O)N(CCO)Cc1ccccc1)C(=O)N[C@H](C)COC(=O)[C@@H](CC=C)Cc1ccc(F)cc1	-15.2%
COc1cccc(NC(=O)Cn2c(=O)n(C)c(=O)c3sc4c(c32)COC(C)(C)C4)c1	?
COCCNC(=O)C1CCN(S(=O)(=O)c2c(C)noc2/C=C/c2cccs2)CC1	-11.6%
COCC(C)Nc1ncnc2c1cnn2-c1ccc(Cl)cc1 (configuration not stated)	-13.7%
CC(C)CN(CCCNC(=O)c1cc(=O)[nH]c2ccc(S(=O)(=O)N3CCCC3)cc12)CC(C)C	2.5%
COC(=O)C(Cc1ccccc1)NC(=O)CC(C)CC(=O)Nc1ccc(C)cc1 (configuration not stated)	-2.1%
COCCn1c(SCC(=O)Nc2ccccc2OC)nnc1-c1ccco1	-2.2%
CCOc1ccc(C(=O)NC2CCN(CC(=O)NCc3cccs3)CC2)cc1	2.1%
O=C(OCCN1CCCCC1)c1ccc(Cl)cc1	-12.9%
COc1ccc(-c2nc(NC(C)=O)sc2-c2ccc(OC)cc2)cc1	-5.7%
COC(=O)Nc1c(-c2ccccc2)nc2ccccn12	5.0%
COc1cccc(C2C=C(c3ccccc3)Nc3c(C(=O)Nc4ccccc4)cnn32)c1OC (configuration not stated)	1.4%
Clc1ccc(N=NN2CCOCC2)cc1	-7.3%
COc1ccccc1N(CC(=O)N/N=C(\C)c1ccc(F)cc1)S(=O)(=O)c1ccccc1	-18.5%
O=C(O)CCC(=O)Nc1cccc(C(=O)c2ccccc2)c1	-12.6%
CCOC(=O)CNC(=O)N1CCCC(CNS(=O)(=O)Cc2ccccc2)C1 (configuration not stated)	13.6%
CCOC(=O)c1c(NC(=O)COC)sc2c1CCCC2	-10.1%
CN(C(=O)c1cccc(NC(=O)Cc2cccc(NC(=O)C3CCCN(C(=O)C4CCC4)C3)c2)c1)C1CCC1 (configuration not stated)	8.5%

Three entries out of the list above, ordered by the number in VDR inh, smallest number first:
SMILES | VDR inh
Cc1cc(C)c(OCC(=O)OCC(=O)NNC(=O)c2ccccc2F)c(C)c1 | -19.9%
Cc1ccc(N(CC(=O)NC(C)(C)C)C(=O)CNC(=O)c2cccs2)cc1 | -0.5%
Cc1cnc(C(=O)Nc2ccc(N3CCN(C(=O)OC(C)(C)C)CC3)cc2)cn1 | 11.2%

Additional records.
smiles	VDR inh
CC1CCCC(NC(=O)CN(C)CC(=O)Nc2cccc(F)c2)C1C (configuration not stated)	-19.2%
CC(C)COc1ccc(CNC(=S)N/N=C/c2ccc([N+](=O)[O-])cc2)cc1	20.0%
CCOc1ccc(-c2nc(CSc3nnc(N)s3)cs2)cc1OC	17.9%
CNC(=O)c1csc(-c2cccs2)n1	-16.0%
Cc1cc(NC(=O)CSc2nnc(C3CC3)n2Cc2ccccc2)no1	0.9%
CNC(=S)NNC(=O)c1sc2cc(C(F)(F)F)cnc2c1-c1ccccn1	5.4%
O=c1ccc(/C=C/c2ccccc2)nn1Cc1ccc(F)cc1	-15.4%
O=c1[nH]c(C2CCCN(S(=O)(=O)Cc3ccccc3)C2)nc2c1nnn2Cc1cccc(Cl)c1 (configuration not stated)	-0.1%
CC(=O)c1cc(-c2ccccc2)n(CC(=O)NCCc2ccc(C)cc2)c1C	7.1%
COc1ccc(Cl)cc1NC(=S)N(CCN1CCOCC1)C1CCN(C(C)=O)CC1	-10.7%
COc1ccc(NC(=O)CSc2ncn(-c3ccccc3)n2)cc1Cl	2.4%
COc1ccccc1CNS(=O)(=O)c1ccc(-c2cc(C)no2)cc1	-17.7%
CSc1ccc(/C=C(/NC(=O)c2ccco2)C(=O)NCc2ccco2)cc1	1.2%
c1ccc(CNn2nnnc2-c2ccccc2)cc1	-9.7%
COc1ccc(Cl)cc1NS(=O)(=O)c1ccc2c(c1)NC(=O)CC(=O)N2	-3.3%
COc1ccc(C)cc1S(=O)(=O)N1CCN(C(=O)c2ncoc2-c2cccc(C)c2)CC1	-10.7%
CCOC(=O)Nc1nnc(-c2ccccc2OC)s1	9.8%
COc1cccc(NC(=O)CN(C)C(=O)c2cccnc2Nc2cccc(C(F)(F)F)c2)c1	20.7%
CNC(=O)NC(=O)CSc1nc2ccccc2n1CCOC	-2.3%

An excerpt of these results, with each value named.
> COc1ccc(C(=O)C2CCCN(C3Cc4ccccc4C3)C2)cc1OC (configuration not stated)
  VDR inh: -13.7%

> COc1ccc(OC)c(NC(=O)CSC2=Nc3ccccc3C3=NC(CC(=O)NCc4ccc(F)cc4)C(=O)N23)c1 (configuration not stated)
  VDR inh: 6.8%

> COC(=O)/C=C/c1oc2ccccc2c1C
  VDR inh: 5.2%
